Screening results from PubChem BioAssay.
Beta cell apopt: beta cell apoptosis inhibition. AID 435005. INS-1E cytokine-induced death, ATP luminescence, 48 h; percent of positive-control rescue, neutral wells zero. protection from apoptosis, % (test concentration not listed). 300,000 compounds, 0.8% hits;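 active means all replicates at 75% or more, or half of them and the mean; inconclusive means half reach 75% but not the mean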;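 further: 0% = cytokine-treated negative control wells and 100% = positive control rescue; higher means more ATP so stronger rescue from cytokine killing; wells of about 40 µL received 100 nL stock; the first replicate is given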
Bfl-1 A1 inh: inhibitors of the anti-apoptotic protein A1, read as caspase activation; MEF A1-2A-BIM cells, Caspase-Glo 3/7 luminescence, 3 h; percent of clofoctol response, vehicle zero; caspase activation, % (test concentration not listed); 330,000 compounds, 0.066% hits;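 active means over half of replicate activation scores above 10%, or exactly half above 10 with the replicate mean above 10; inconclusive means replicate mean below 10 yet half the replicates above 10; inactive means over half of replicates below 10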;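 further: wells of about 30 µL received 50 nL stock; many hits fall short of the cut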
Ecoli rRNA inh: inhibitors of bacterial rRNA selective over humanized ribosomes; E. coli WT GFP vs humanized-ribosome RFP mutants, fluorescence, 24 h; active compounds read low; DMSO median 0, no signal -100; GFP signal change (wild-type ribosome), % (test concentration not listed); 350,000 compounds, 1.6% hits;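 active means significant combined selectivity score with lowered wild-type GFP, culture density cut under 30%, mutant RFP and density less affected; inactive means any of these conditions unmet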; further: one replicate is shown; some compounds called inactive have numbers as strong as hits
ALR inh: human ALR oxidase inhibition via reduced H2O2 | purified ALR, DTT oxidation, H2O2 HRP-luminol luminescence | inhibition, % (no concentration beside the values) | 290,000 compounds, 3.8% hits;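 active means mean and each replicate at 75% or more; inconclusive means only one of the two met; inactive means neither met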;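 further: stock transfer was 7.5 nL into about 7.5 µL; 0% = neutral wells and 100% = wells with inactivated enzyme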
Target sequence (P55789 whole entry, looked up): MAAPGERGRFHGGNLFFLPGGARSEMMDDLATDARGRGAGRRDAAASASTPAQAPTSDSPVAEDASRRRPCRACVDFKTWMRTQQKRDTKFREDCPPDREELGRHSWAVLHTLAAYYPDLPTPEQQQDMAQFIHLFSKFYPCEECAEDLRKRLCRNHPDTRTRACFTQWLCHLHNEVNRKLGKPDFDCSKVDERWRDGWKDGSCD
B2AR ag: agonists of human beta-2 adrenergic receptor inducing internalization; P07550; Am2.2-beta2AR cells, FAP receptor internalization, flow cytometry; reference of the scale not given here; response, % (test concentration not listed); 340,000 compounds, 0.43% hits; AID 504454;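 active means response above a set limit, near 3 SD of response in nonfluorescent compounds, cut at about 42% in these data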;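 further: stock transfer was 100 nL into about 11 µL; a reference agonist was the positive control; negative values mostly stem from fluorescent compounds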
Target sequence (P07550 whole entry, looked up): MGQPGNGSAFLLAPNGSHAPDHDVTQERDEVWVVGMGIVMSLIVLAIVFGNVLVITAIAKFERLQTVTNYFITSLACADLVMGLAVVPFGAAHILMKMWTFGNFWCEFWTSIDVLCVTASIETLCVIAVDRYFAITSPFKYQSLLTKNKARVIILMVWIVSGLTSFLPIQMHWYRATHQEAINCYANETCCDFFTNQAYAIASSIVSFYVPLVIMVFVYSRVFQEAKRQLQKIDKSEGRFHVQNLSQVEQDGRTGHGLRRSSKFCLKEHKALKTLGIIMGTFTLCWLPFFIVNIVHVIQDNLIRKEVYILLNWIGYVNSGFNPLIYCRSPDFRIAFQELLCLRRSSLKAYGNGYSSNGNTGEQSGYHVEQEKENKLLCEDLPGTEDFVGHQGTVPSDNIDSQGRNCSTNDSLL
LANA-H2B inh: blocks KSHV LANA binding to histone H2A/H2B; cell-free LANA-H2A/H2B peptide, fluorescence polarization; inhibition, % (concentration not given with the values); 320,000 compounds, 0.6% hits; AID 2629; in the data active means inhibition mostly above about 10%, no sharp cut-off; inactive means mostly below about 6.7%;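 further: stock transfer was 7.5 nL into about 10 µL; 0% = median of vehicle wells and 100% = median of positive control wells; one replicate is shown; the record names a cut of 25% in any replicate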
Calb FLC: affects C. albicans growth with fluconazole | growth inhibition, % (test concentration not listed) | C. albicans CaCi-2 (fluconazole-resistant clinical isolate) + fluconazole, Alamar Blue growth, 48 h | 300,000 compounds, 0.57% hits;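 active means most replicates above 75%; inconclusive means exactly half above 75%; inactive means most below 75%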;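 further: all wells also contain fluconazole at 8 µg/ml as a sub-toxic cotreatment; 0% = median of DMSO wells and 100% = median of geldanamycin control wells; wells of about 8 µL received 7.5 nL stock; the first replicate is given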
T cruzi inh: T. cruzi replication inhibition | inhibition, % (no concentration beside the values) | 300,000 compounds, 1.4% hits | AID 1885 | T. cruzi beta-gal in NIH3T3, luminescence, 90 h;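 active means mean inhibition across valid replicates above about 55%, limit read from the data; inconclusive means mean below that limit but half or more replicates reach it; inactive means mean below it, under half of replicates reach it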;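 further: signal also drops with host cell toxicity which is not excluded here; 0% = plate median of DMSO wells and 100% = zero luminescence signal; higher percent means less beta-gal luminescence so fewer parasites; stock transfer was 50 nL into about 50 µL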
Ecoli rRNA inh OD600: further read-out of Ecoli rRNA inh, marked with its call; OD600 change, %; measured here: OD600 growth;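 optical density of the mix in the first replicate; 0 = DMSO median and -100 = no signal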
Ecoli rRNA inh RFP: second read-out of Ecoli rRNA inh, no call of its own (marks repeat the call); RFP signal change, %; measured here: RFP humanized mutant strains;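 first replicate; 0 = DMSO median and -100 = no signal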
* = called active by the depositor; ? = inconclusive; / = no result given.

SMILES	Beta cell apopt	Bfl-1 A1 inh	Ecoli rRNA inh	Ecoli rRNA inh OD600	Ecoli rRNA inh RFP	ALR inh	B2AR ag	LANA-H2B inh	Calb FLC	T cruzi inh
O=C(NC1(C(F)(F)F)NC(=O)N(Cc2cccnc2)C1=O)c1ccc(F)cc1 (centres undefined)	-9.4	-0.7	11.8	2.8	0.7	/	5.5	3.0	-3.3	-7.3
CCOC(=O)N/N=C(C)/C=C/c1ccccc1	-2.0	0.5	13.8	8.0	-0.6	-17.1	-0.7	0.5	1.7	6.1
COC(=O)[C@H](C)NC(=O)c1cc2c(cn1)[nH]c1ccccc12	-4.8	-0.9	0.8	3.1	-7.2	-15.7	11.0	-0.6	-2.3	-4.1
Cc1ccc2c(C)cc(=S)[nH]c2c1	/	/	8.3	7.7	3.3	/	-1.1	/	-30.9	1.6
COc1cccc(C(=O)C2CCCN(Cc3cn(CC(N)=O)c4ccccc34)C2)c1 (centres undefined)	0.8	0.0	1.1	-1.9	1.8	-27.3	1.1	1.5	-18.6	32.2
C=CCC1NCCc2c(Br)cccc21 (centres undefined)	0.9	0.4	16.9	8.7	-1.7	-3.1	-6.4	7.8	-3.7	5.8
COc1ccc(NC(=O)CSc2nnc(-c3ccccc3)n2Cc2ccco2)c(OC)c1	3.7	0.9	/	/	/	-5.4	-9.6	-5.1	10.8	10.5
COc1ccc(C(=O)O)cc1S(=O)(=O)N1CCCc2ccccc21	-7.7	0.3	3.1	0.8	0.6	/	-1.1	-0.4	2.5	-6.4
C=CCOc1c(Br)cc(CNn2cn[nH]c2=S)cc1OC	-2.7	-0.7	-11.0	-19.2	-5.4	92.4*	0.2	0.5	46.2	-3.8
CCOc1cc(/C=N/Nc2nnc(C)n2N)ccc1OC(C)=O	-4.8	0.9	-7.3	-0.6	-9.3	14.4	0.9	0.1	3.8	-10.7
CC(O)[C@H]1CNC(=O)C(=O)N1CC1CCCCC1 (some centres undefined)	-8.5	0.5	8.1	1.2	-8.1	-10.2	-5.3	0.4	4.4	-6.5
CCCC(=O)NCCc1cc(OC)c(OC)cc1Br	-0.2	0.8	9.6	-5.6	2.7	-97.5	-3.8	-2.0	8.9	-3.0
COc1cc([N+](=O)[O-])cc2cc(C(=O)NC(C)(C)C)c(=O)oc12	-13.3	0.5	/	/	/	2.7	5.1	-2.7	-10.1	-7.8
CNC(=O)CSc1nc2c(c(=O)n(C)c(=O)n2C)n1Cc1ccc(C)cc1	7.3	1.4	6.2	5.8	-1.2	-13.3	-0.7	1.9	4.2	9.2
CC(=O)N1CCN(C(C)=O)C1c1ccccc1	1.9	-0.1	/	/	/	-10.0	-1.1	0.3	-19.4	-9.8
O=C(NCC1CCCO1)C1CCCN(Cc2cnn(-c3ccccc3)c2-n2cccc2)C1 (centres undefined)	4.4	0.3	/	/	/	/	-5.5	-0.9	-1.6	18.9
Cc1cccc(C)c1-n1c(SCC(=O)Nc2ccc(C(=O)O)cc2)nnc1-c1cccc(S(=O)(=O)N(C)C)c1	-8.0	?	-13.3	-12.8	-6.0	/	8.2	-2.1	52.9	-16.8
Cc1cc(C)c(C#N)c(SCC(=O)c2cc(C)n(CCc3ccccc3)c2C)n1	6.8	-0.1	/	/	/	2.2	2.7	-7.2	37.8	?
COc1ccc(OC)c(N(CC(=O)NN=C2CCN(C)CC2)S(=O)(=O)c2ccccc2)c1	/	0.2	4.3	3.0	-0.4	20.5	-3.2	-3.9	3.9	10.0
CCCCOC(=O)Nc1nnc(CCc2ccccc2)s1	-5.5	0.0	/	/	/	-10.2	-0.4	-0.2	13.6	5.3
CCOC(=O)Cc1nnc(NC(=O)c2cccc(OCC)c2)s1	-0.8	-1.1	/	/	/	-4.0	-6.3	0.8	-3.1	/
O=C(NCc1ccco1)C1CCN(C(=O)c2cc3sccc3n2Cc2ccc(Cl)cc2)CC1	10.7	1.2	/	/	/	-0.4	38.8	7.7	-11.5	21.7
O=C(C1CCCCC1)N1CCN(S(=O)(=O)c2cccc([N+](=O)[O-])c2)CC1	-3.0	0.4	-7.5	11.7	-2.2	-16.6	-6.0	0.4	-16.4	-0.5
Cc1nnc(NC(=O)CSc2nnc(CNC(=O)c3ccc(S(=O)(=O)N(C)C)cc3)o2)s1	3.3	-0.7	15.8	15.6	3.1	0.1	-3.6	1.4	-3.4	-34.2
O=C(Nc1ccc(S(=O)(=O)N2CCCC2)cc1Cl)C1=COCCO1	0.1	-0.4	/	/	/	-0.5	-12.6	-2.6	6.9	-14.4
COc1ccc(N(CC(=O)N2CCC(C)CC2)S(=O)(=O)c2c(C)nn(C)c2C)cc1	1.2	-0.7	-2.8	-19.6	-10.5	-1.2	8.3	-4.4	2.3	-9.3
Cc1ccc(-c2cc(C(=O)N/N=C/c3c[nH]c4ccccc34)[nH]n2)cc1	/	/	-20.4	16.8	8.6	/	12.0	/	4.7	-48.0
CC(NC(=O)Cn1c(NCCO)nc2ccccc21)c1ccccc1 (centres undefined)	-4.8	-0.4	/	/	/	4.6	-5.1	3.0	-3.1	3.4
O=C(NC(=S)Nc1ccc(S(=O)(=O)N2CCCCCC2)cc1)c1cccs1	6.2	0.3	5.4	13.8	-1.7	/	-5.6	-3.2	-5.4	5.0
Cc1cccc(C)c1OCc1nnc(SCC(=O)Nc2nccs2)n1-c1ccccc1	14.1	4.5	/	/	/	-2.9	9.7	2.9	1.1	-10.9
COc1ccc(-c2nn(-c3ccccc3)cc2/C=N/NS(=O)(=O)c2ccccc2)cc1	1.8	1.7	/	/	/	-15.5	-2.1	10.2*	2.4	6.2
CN(C)c1cc[n+](CC(=O)c2ccc(OC(F)F)cc2)cc1	9.6	-0.5	6.4	1.9	-2.7	-4.2	11.0	-3.3	1.9	-6.2
COc1ccc(-n2c(CN3CCN(c4ccccc4OC)CC3)nc3ccc([N+](=O)[O-])cc3c2=O)c(OC)c1	/	/	9.8	4.7	-2.6	/	-13.8	/	-0.3	16.0
COc1ccnc(N=CNOCc2cccc(Cl)c2Cl)c1C#N	-4.1	0.2	/	/	/	0.5	-6.0	-4.2	0.5	-7.1
CC(C)(CNC(=O)c1ccc(NS(=O)(=O)c2ccc(F)cc2)cc1)N1CCOCC1	-3.7	-0.9	3.8	6.2	1.2	-4.7	0.6	-4.1	15.1	-21.4
Cc1nc(C(=O)N2CCCC(N3CCN(c4ccccc4C)CC3)C2)cs1 (centres undefined)	-4.7	0.0	8.9	-2.1	2.2	12.2	5.4	1.1	-5.4	-1.5
Cc1cccc(N2CCN(C(=O)CCCOc3ccccc3)CC2)c1C	0.2	-0.4	/	/	/	-3.5	3.8	0.5	-1.5	19.3
Cc1onc(-c2ccccc2)c1C(=O)N/N=C/c1c(F)cccc1Cl	-7.0	1.2	1.2	-1.3	2.5	1.8	-6.7	0.6	4.0	4.2
CC(=O)c1cc(C)ccc1OC(=O)c1ccco1	-8.2	0.6	-1.8	-6.4	-0.5	4.9	5.7	-1.5	-8.4	-6.4
CC(Sc1nnnn1-c1ccccc1)C(=O)Nc1ccc(Cl)cn1 (centres undefined)	-2.2	0.2	/	/	/	/	8.6	1.2	14.4	-2.4
N=C(c1ccc([N+](=O)[O-])cc1)N1CCCCC1	-4.3	0.5	12.9	5.3	-0.2	-25.9	11.0	2.8	-16.1	1.3
CC(C(=O)NC1CCCCC1)N1C(=O)C2C3C=CC(C3)C2C1=O (centres undefined)	-0.9	0.9	19.1	15.8	2.0	-1.4	0.2	-0.5	4.4	-4.6
CC(=O)C[C@H](O)CC(=O)[C@@H]1OC(=O)CCCCCCCCc2ccccc21	-6.8	0.4	-23.8	-26.8	-0.7	2.8	5.4	-6.5	/	/
COc1ccc(C(C)=O)cc1COC(=O)c1cc(C)nc2ccccc12	-0.4	-0.3	9.8	10.8	-2.1	2.4	-1.9	-1.9	3.1	-8.9
O=C(NC(=S)N1CCc2ccccc21)c1ccc(Br)o1	-4.8	-0.5	-42.5*	-24.0*	-4.6*	/	5.0	-4.7	19.7	-1.3
CCCc1nnc(SCC(=O)N(CC)CC)n1CC1CCCO1 (centres undefined)	-4.2	1.7	21.9	19.6	2.7	-2.7	2.3	1.6	11.2	-2.1
O=S(=O)(c1ccc(Br)s1)N1CCN(c2ccc(F)cc2)CC1	-3.0	2.4	-2.7	-5.5	3.6	-26.8	1.0	-4.3	-4.6	9.0
CN(c1ccc(OCC(=O)OCC(=O)c2c(N)n(C)c(=O)n(C)c2=O)cc1)S(=O)(=O)c1ccc2ccccc2c1	-1.6	0.6	8.5	16.6	4.5	-11.2	12.6	-1.0	-0.5	-10.5
O=C(CNC(=O)c1ccco1)OCC(=O)c1ccc(Cl)cc1Cl	-2.8	0.0	6.3	8.1	-6.6	-3.6	-4.7	0.4	-2.8	-3.9
CCOc1ccc(S(=O)(=O)NCCC(=O)N2CCN(c3ncccn3)CC2)cc1	0.1	-0.9	-0.4	4.2	0.4	/	-3.2	0.0	/	/
O=[N+]([O-])c1ccc(N2CCCCC2)cc1N1CCOCC1	-3.3	0.0	-3.6	-6.9	4.1	1.3	-20.8	-0.3	-15.7	7.8
Cc1ccc(C)c(Cn2nnc3c(=O)[nH]c(C(=O)Nc4ccc(F)cc4)nc32)c1	18.8	-0.1	-26.7	-39.9	-5.4	95.6*	14.6	4.5	-9.9	31.9
O=C1CCN(Cc2ccccc2)C=C1c1ccc(Cl)cc1	2.8	1.0	-27.4	-42.2	-4.8	-7.4	1.4	-2.9	/	/
Fc1ccccc1Cn1cc(C(=S)N2CCOCC2)c2ccccc21	0.1	0.5	-20.1	-14.7	9.4	-0.8	-7.1	-6.5	-6.9	-0.6
CC(C)C(=O)N1CCC2(CC1)Oc1ccc(Cl)cc1C(=O)C21CC(c2ccccc2)=NO1 (centres undefined)	-0.8	1.0	4.8	0.9	3.8	2.0	-3.5	-0.5	28.2	5.2
COC(=O)c1cccc(Nc2ccc([N+](=O)[O-])cn2)c1	-2.7	-0.4	9.7	5.7	-1.0	-1.7	3.0	-1.6	10.8	-4.2
O=C(Cn1ccc2ccccc2c1=O)NCCC(=O)Nc1cccc(Cl)c1	1.1	-0.6	/	/	/	0.9	-5.3	-5.0	-6.7	-2.8
COc1ccc(/C=C/c2nc3sc4c(c3c(=O)o2)CCC4)cc1	0.3	-1.1	/	/	/	66.1	-0.9	7.9	50.7	-18.5
CCN(CC(=O)NCc1cccs1)C(=O)c1cccc(S(=O)(=O)NCc2ccccc2)c1	-0.6	0.2	-3.9	-6.3	7.2	/	-6.0	-2.0	1.4	-7.0
COc1ccc(/C=C2\SC(=O)N(CCNC(=O)CCS(=O)(=O)c3ccc(C)cc3)C2=O)cc1	-2.9	-1.1	/	/	/	-8.0	0.4	-0.6	-4.9	2.9
CCOc1ccccc1-n1nnnc1SCC(=O)NC(=O)Nc1ccc2c(c1)OCCO2	-1.9	-1.1	/	/	/	-2.8	2.5	1.1	-17.3	4.6

An excerpt; count on the stated rates, not on these rows.
